Source: PubChem BioAssay (several laboratories)
Insulin prom inh: TRM-6 insulin promoter activity inhibition. TRM-6 cells (human fetal islet line), insulin promoter-eGFP reporter, imaging; reporter expression induced with tamoxifen. inhibition, % at 2 µM. 0.9% of 130,000 active. AID 1273;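 active means inhibition above the mean plus 3 SD, with well images judged a real hit on visual review, cut at about 60% in these data, passing the limit was not always enough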
GALR2 ag: activates the human galanin receptor 2; O43603; GALR2-expressing cells, agonist activation read-out; activation, %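 (tested at 5 µM)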; 0.48% of 140,000 active; AID 803;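 active means above mean plus 3 SD of all compounds, about 5% in these data, not always enough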;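 further: 0% = vehicle buffer wells and 100% = reference agonist at full effect; tested in CHO reporter cells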
Target sequence (O43603 whole entry, looked up): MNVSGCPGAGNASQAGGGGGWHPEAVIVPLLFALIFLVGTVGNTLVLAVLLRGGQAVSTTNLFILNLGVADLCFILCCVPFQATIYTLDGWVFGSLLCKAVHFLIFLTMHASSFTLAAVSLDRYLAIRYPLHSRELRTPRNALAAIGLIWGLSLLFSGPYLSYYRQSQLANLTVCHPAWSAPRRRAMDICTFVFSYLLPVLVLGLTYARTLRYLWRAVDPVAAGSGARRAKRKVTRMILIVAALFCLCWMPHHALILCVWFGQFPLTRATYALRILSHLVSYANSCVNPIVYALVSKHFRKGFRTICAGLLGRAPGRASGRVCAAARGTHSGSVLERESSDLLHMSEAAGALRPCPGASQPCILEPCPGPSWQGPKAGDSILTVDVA
HSV replic up: HSV replication enhancement | HSV replication augmentation in cells, fold increase | maximum fold increase | 0.005% of 220,000 active | AID 1956;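 active means peak rise of 1.5-fold or more in the series; tested in PC3 cells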;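 further: first round at 10 µM; read as green reporter fluorescence; hits show the peak of a series up to 25 µM; 1 = signal of infected wells without compound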
PKD1 kinase inh: inhibitors of human PKD1 kinase; AID 797; PKD1 kinase fluorescence polarization assay; inhibition, %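 (about 10 µM by stock and volumes)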; 0.056% of 200,000 active; Q15139;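 active means inhibition of 50% or more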;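 further: controls were vehicle for no effect and a reference inhibitor for full effect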
RGS16-Gao HTS: RGS16-Galphao interaction regulator (human); bead-based flow cytometry RGS16-Galphao binding, fluorescence; actives lie on both sides; 0.38% of 220,000 active; binding response (% of control), % at 10 µM; AID 1441; O15492+P09471;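 active means below 25% or above 175%, edge rows of some plates excepted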;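 further: Galphao activated by GDP with aluminum fluoride before binding; 100% = wells without compound and 0% = beads without RGS; some results beyond the cut were filed as inactive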
Target sequence (O15492 whole entry, looked up): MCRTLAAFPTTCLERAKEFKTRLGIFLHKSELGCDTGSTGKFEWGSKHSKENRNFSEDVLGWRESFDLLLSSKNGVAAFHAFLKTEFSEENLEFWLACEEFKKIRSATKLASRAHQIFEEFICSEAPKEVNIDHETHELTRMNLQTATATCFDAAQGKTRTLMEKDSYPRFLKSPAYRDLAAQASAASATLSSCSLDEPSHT
Target sequence (P09471 whole entry, looked up): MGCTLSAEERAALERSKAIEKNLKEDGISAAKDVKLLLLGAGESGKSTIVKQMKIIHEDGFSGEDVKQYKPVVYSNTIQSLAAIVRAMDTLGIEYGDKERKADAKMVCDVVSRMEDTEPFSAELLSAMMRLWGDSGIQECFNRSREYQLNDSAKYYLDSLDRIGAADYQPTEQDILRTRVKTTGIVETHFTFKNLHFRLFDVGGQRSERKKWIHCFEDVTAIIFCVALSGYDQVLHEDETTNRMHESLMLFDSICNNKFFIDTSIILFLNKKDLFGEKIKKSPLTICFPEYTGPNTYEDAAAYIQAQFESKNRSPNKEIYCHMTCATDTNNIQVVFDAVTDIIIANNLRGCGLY
Insulin prom inh cell count: second read-out of Insulin prom inh, no call of its own (marks repeat the call); normalized cell count, %; measured here: cell count, toxicity; reference of the scale not given here;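 cells exposed to compound for 48 h; stained nuclei by imaging scaled within each plate; lower means fewer cells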
HSV replic up primary fold: also measured in HSV replic up; calls as there; fold increase; compound at 10 µM; measured here: primary screen fold increase 10 uM; tested in PC3 cells;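 GFP signal in the first replicate; 1 = infected wells without compound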
An asterisk follows results filed as active; i = inactive; . = not tested or not shown.

SMILES | Insulin prom inh | Insulin prom inh cell count | GALR2 ag | HSV replic up | HSV replic up primary fold | PKD1 kinase inh | RGS16-Gao HTS
CCCCCCCCCCSc1n[nH]c(NC(C)=O)n1 | . | . | -1.8 | i | 0.89 | -8 | 100
CC(=O)N1N=C(c2cccc(Br)c2)OC12CCCC2 | . | . | . | i | 1.1 | 8 | 100
CC(=O)Nc1sc2c(c1C(=O)N1CCOCC1)CCCCC2 | 14 | 108 | -1.9 | i | 1.1 | -1 | 35
COCCCNC(=O)c1ccc(N2CCCC2)c(NS(=O)(=O)c2ccc(C)cc2)c1 | . | . | -2.1 | i | 0.68 | -4 | 97
Cn1nnc2cc(NC(=O)N3CCN(c4ccccn4)CC3)ccc21 | 21 | 105 | -1.5 | i | 1.1 | -15 | 101
O=C(O)CCC(=O)c1ccc2c(c1)OCCO2 | . | . | 0.3 | i | 0.97 | -3 | 106
CCn1c(SCC(=O)Nc2oc(-c3ccccc3)c(-c3ccccc3)c2C#N)nnc1-c1cc(OC)cc(OC)c1 | . | . | -1.6 | i | 1 | 6 | 101
O=C(O)[C@@H]1Cc2ccccc2N1 | . | . | . | i | 1 | . | 101
O=c1n(-c2ccccc2)c(=O)n2n1CCC2 | -43 | 73 | -1.5 | i | 0.73 | -2 | 103
COc1ccccc1NC(=O)CCSc1nnc(-c2ccco2)o1 | . | . | . | i | 0.99 | -4 | 96
COCCn1c(=N)c(C(=O)NCc2ccco2)cc2c(=O)n3ccccc3nc21 | -13 | 105 | -0.3 | i | 1.1 | -9 | 92
CCCCNC(=O)CSc1nc2cc3c(cc2c(=O)n1CCC(=O)NCCc1ccc(OC)c(OC)c1)OCO3 | 41 | 89 | . | i | 1 | -2 | 103
COCCNC(=O)CN(CCc1ccccc1)S(=O)(=O)c1ccc(OC)cc1 | 26 | 89 | -2.5 | i | 0.82 | 0 | 102
COc1cccc(-n2c(Cc3cc(=O)[nH]c(=O)[nH]3)nnc2SCC(=O)N2CCCC2)c1 | -93 | 115 | -3.1 | i | 0.99 | 9 | 112
CCn1cc(CNCc2ccc(OCC(O)CN(C)Cc3ccccc3)cc2)cn1 (stereo not given) | -30 | 85 | . | i | 1 | 4 | 99
O=C(O)c1cccc(NC(=S)NC(=O)c2ccncc2)c1 | . | . | . | i | 1.1 | -1 | 103
CC12CC3CC(C)(C1)CC(CN)(C3)C2 | 11 | 126 | -0.9 | i | 0.98 | 0 | 100
O=C(O)CC(c1ccc(Cl)cc1)n1cccc1 (stereo not given) | . | . | -0.3 | i | 0.85 | 6 | 96
CCOc1ccc(-c2cc(C(=O)NN3CCN(C)CC3)c3cc(Cl)ccc3n2)cc1 | . | . | 0.1 | i | 1.1 | 1 | 142
O=C(COC(=O)C1CC(=O)N(Cc2ccco2)C1)c1ccc(OC(=O)c2ccccc2)cc1 (stereo not given) | 35 | 131 | -0.8 | i | 0.9 | -9 | 95

Structures listed so far that have an NH in an aromatic ring (2):
SMILES | Insulin prom inh | Insulin prom inh cell count | GALR2 ag | HSV replic up | HSV replic up primary fold | PKD1 kinase inh | RGS16-Gao HTS
CCCCCCCCCCSc1n[nH]c(NC(C)=O)n1 | . | . | -1.8 | i | 0.89 | -8 | 100
COc1cccc(-n2c(Cc3cc(=O)[nH]c(=O)[nH]3)nnc2SCC(=O)N2CCCC2)c1 | -93 | 115 | -3.1 | i | 0.99 | 9 | 112

The listing picks up with the two entries that preceded the break.
SMILES | Insulin prom inh | Insulin prom inh cell count | GALR2 ag | HSV replic up | HSV replic up primary fold | PKD1 kinase inh | RGS16-Gao HTS
CCOc1ccc(-c2cc(C(=O)NN3CCN(C)CC3)c3cc(Cl)ccc3n2)cc1 | . | . | 0.1 | i | 1.1 | 1 | 142
O=C(COC(=O)C1CC(=O)N(Cc2ccco2)C1)c1ccc(OC(=O)c2ccccc2)cc1 (stereo not given) | 35 | 131 | -0.8 | i | 0.9 | -9 | 95
O=C(NCc1ccccc1)C(=O)NCC1OCCN1C(=O)c1cccs1 (stereo not given) | . | . | -1.3 | i | 1.1 | -7 | 98
CCOC(=O)c1cc(-c2cccnc2)nn1-c1ccccc1 | . | . | . | i | 0.89 | -3 | 98
CC(/C=C/c1cccc([N+](=O)[O-])c1)=N\NC(=O)c1ccncc1 | . | . | 0.1 | i | 0.72 | 3 | 92
CC1SCC(=O)N(CC(=O)NC2CCCCC2)C1=O (stereo not given) | 39 | 115 | . | i | 1 | -6 | 107
O=C(CCN1C(=O)c2ccccc2C1=O)N(CCO)Cc1ccccc1 | 5 | 44 | -1.4 | . | . | -5 | 113
CCc1cccc(N=c2c([N+](=O)[O-])nn(-c3ccc(Cl)cc3)n2O)c1 | -13 | 117 | -3.1 | i | 0.96 | 0 | 98
COc1ccc(N2C(=O)S[C@@H]3CS(=O)(=O)C[C@@H]32)cc1 | -29 | 132 | -4.6 | i | 1 | -1 | 102
COc1ccc(C(=O)Nc2ccc(OCc3ccccc3)cc2)cc1[N+](=O)[O-] | . | . | -3.0 | i | 1.1 | 5 | 99
O=C(CCN1C(=O)COc2ccccc21)NCCCN1CCN(c2ccc(F)cc2)CC1 | -61 | 60 | -2.3 | i | 0.91 | 3 | 106
COC(=O)C(CC(C(=O)OC)C(=O)OC)C(=O)OC | 19 | 85 | -3.0 | i | 1.2 | -1 | 104
CCOc1cc(N2CCOCC2)c(OCC)cc1NC(=O)c1ccc(S(=O)(=O)N(C)C)cc1 | . | . | . | i | 0.8 | . | 103
Cc1ccccc1OCCCC(=O)Nc1ccc(Br)cc1 | 0 | 102 | -3.5 | i | 0.98 | 8 | 102
COC(=O)[C@@H]1C[C@@H]2CC[C@@H](O)C[C@@H]2N1Cc1ccc(C(F)(F)F)cc1 | . | . | . | i | 1 | . | 101
N=c1n(CCO)c2ccccc2n1CCOc1ccc(Cl)cc1Cl | . | . | -2.7 | i | 0.43 | 0 | 102
CN(c1ccccc1C(=O)Nc1ccc(S(=O)(=O)N2CCCCC2)cc1)S(C)(=O)=O | -8 | 116 | 0.5 | i | 0.82 | -6 | 113
CN(C)CCCN=c1cc(-c2ccccc2)oc2ccc(Cl)cc12 | -62 | 92 | . | i | 0.91 | -6 | 118
C=CCOc1ccc(C=Nc2ccc(C)c(Cl)c2)c(O)c1 | -35 | 158 | -1.4 | i | 0.9 | -1 | 107
CN1CCN(c2ccc(Cl)cc2NC(=O)/C=C/c2cccc(F)c2)CC1 | . | . | . | i | 0.84 | 3 | 100
COC(=O)c1cc(/C=C/c2ccccc2)on1 | . | . | 0.3 | i | 1 | 9 | 109
O=C(NCC(c1cccnc1)N1CCN(c2ccccc2)CC1)C1CCCCC1 (stereo not given) | -181 | 111 | -0.8 | i | 0.89 | -4 | 99
Cc1cc(C)nc(NC2=NCCN2C(=O)Nc2ccc(Cl)c(Cl)c2)n1 | -88 | 132 | -0.7 | . | . | -1 | .
CC(=O)C(C)Oc1ccc2c3c(c(=O)oc2c1)CCCCC3 (stereo not given) | 0 | 122 | -2.7 | i | 0.72 | -4 | 102
COc1ccccc1N1CCN(Cc2cn[nH]c2-c2ccc(F)cc2)CC1 | . | . | . | i | 0.97 | . | 107
COCCCN(CC(=O)O)S(=O)(=O)c1ccccc1 | . | . | . | i | 1 | 1 | 97
Cc1cccc(NC(=O)CCSc2nncn2C)c1 | 1 | 138 | -2.9 | i | 0.99 | 2 | 103
O=C(NCc1ccccc1)c1cc(=O)c2ccccc2o1 | -59 | 56 | . | i | 1.1 | -9 | 98
COc1ccc(-n2c(CNC(=O)COc3ccc(Cl)cc3Cl)n[nH]c2=S)cc1 | -31 | 110 | . | . | . | -3 | 101
CCCCC(=O)NC(c1cccs1)c1cc(Cl)c2cccnc2c1O (stereo not given) | . | . | . | i | 0.81 | -1 | 103
COC(=O)C1=C(N)Oc2cc(C)n(CCN3CCOCC3)c(=O)c2C1c1cccnc1 (stereo not given) | . | . | -1.3 | i | 0.98 | -2 | 100
CN(C)c1cccc(C(=O)NC2CCCCCC2)c1 | 33 | 136 | -3.0 | i | 1.1 | -1 | 99
CC1(C)CC(=O)C(C2=NC(C)(C)Cc3ccccc32)=C(O)C1 | 18 | 102 | -0.6 | i | 0.99 | -14 | 100
COc1cc2nc(COc3ccc(C#N)cc3)n(CC#N)c(=O)c2cc1OC | . | . | -0.8 | i | 1.1 | 7 | 104
COC(=O)c1cccc(-c2ccc(/C=N/N3C(=O)C4C5C=CC(C6CC56)C4C3=O)o2)c1 (stereo not given) | . | . | . | i | 0.98 | -5 | 98
CC1(C)CC(NCc2ccc3c(c2)OCO3)CCO1 (stereo not given) | -28 | 152 | -4.5 | i | 1.1 | 1 | 102
COc1ccc(OCC(=O)O/N=C(\N)c2ccc(OC)c(OC)c2)cc1 | -19 | 151 | -0.6 | i | 0.94 | 0 | 111
C=CCn1c(C)c(C(C)=O)c(SC)nc1=S | . | . | 1.1 | i | 0.9 | 6 | 98
O=C(O)CCC(=O)NNC(=O)CCC1CCCCC1 | 29 | 98 | 0.6 | i | 0.96 | -7 | 30
O=C(C1=C[C@H](C2CCCCC2)C[C@H](OCc2ccc(CO)cc2)O1)N1CCN(Cc2ccc3c(c2)OCO3)CC1 | . | . | . | i | 0.85 | -2 | 110
COc1ccccc1NC(=O)c1cnc(Nc2ccccc2OC)c2ccccc12 | -56 | 5 | 2.1 | i | 0.65 | -2 | 143
Cc1cc(NC(=O)CCC(=O)N(c2ccc(F)cc2)C2(C(=O)NC3CCCCC3)CCCC2)no1 | -45 | 95 | -0.5 | . | . | -1 | 101

The closing 2 entries of the section before open the next one.
SMILES | Insulin prom inh | Insulin prom inh cell count | GALR2 ag | HSV replic up | HSV replic up primary fold | PKD1 kinase inh | RGS16-Gao HTS
COc1ccccc1NC(=O)c1cnc(Nc2ccccc2OC)c2ccccc12 | -56 | 5 | 2.1 | i | 0.65 | -2 | 143
Cc1cc(NC(=O)CCC(=O)N(c2ccc(F)cc2)C2(C(=O)NC3CCCCC3)CCCC2)no1 | -45 | 95 | -0.5 | . | . | -1 | 101
CC(C)OC(=O)c1c2nc3ccccc3nc2n2c1[nH]c(=O)c1ccccc12 | -115 | 113 | -0.3 | . | . | -1 | 96
C/C(=N/N=C1/NC(=O)CC(C(=O)O)S1)c1ccccc1 (stereo not given) | . | . | -0.9 | i | 1.1 | -6 | 104
NC(=O)COc1c(-c2ccccc2)oc2ccccc2c1=O | 21 | 87 | 0.0 | i | 1.2 | -2 | 111
CC(=O)c1ccc(N=C2SCCCN2C(=O)C2CCCC2)cc1 | 55 | 161 | . | i | 0.92 | 4 | 109
CC1=C(C#N)C(c2ccc(O)cc2)C2=C(CCCC2=O)N1 (stereo not given) | . | . | . | i | 0.86 | -7 | 104
COc1ccc(NC(=O)C(C)N2c3cccc4cccc(c34)S2(=O)=O)cc1OC (stereo not given) | -19 | 107 | -0.1 | i | 0.82 | 1 | 98
O=C(NN1C(=O)C2C3C=CC(C4CC34)C2C1=O)c1ccc(Cl)c(Cl)c1 (stereo not given) | . | . | 0.7 | i | 1 | -4 | 88
CC1CCCN(S(=O)(=O)c2ccc(C(=O)Nc3nnc(-c4ccccc4Cl)o3)cc2)C1 (stereo not given) | -54 | 158 | -1.8 | i | 0.72 | 1 | 73
COc1cc(NC(=O)c2cc3nc(C4CC4)cc(C(F)(F)F)n3n2)c(OC)cc1Cl | . | . | -0.5 | . | . | -4 | 104
Cc1onc(-c2ccccc2)c1C(=O)N/N=C/C=C/c1ccccc1 | . | . | . | i | 1.1 | . | 104
CCC(=O)Nc1ccc2c(c1)nc(CN1CCN(C(C)=O)CC1)n2C | 18 | 120 | -0.4 | i | 1.1 | -11 | 103
COc1ccc(-c2[nH]ncc2CN(C)CC2CCCCO2)cc1F (stereo not given) | . | . | . | i | 0.94 | -4 | 102
O=[N+]([O-])c1ccccc1S(=O)(=O)Oc1ccc(/C=N/n2cnnc2)cc1 | 21 | 113 | 0.3 | i | 0.9 | -6 | 104
CCCSc1nc(=S)n(Cc2ccccc2)c(C)c1C(C)=O | . | . | . | i | 0.71 | 6 | 99
O=c1[nH]c(/C(Cl)=C/c2cccc(C(F)(F)F)c2)nc2cc(Cl)ccc12 | -10 | 85 | -1.6 | i | 0.92 | -5 | 104
CC(NC(=O)CCC(=O)NC(C)C1COc2ccccc2O1)C1COc2ccccc2O1 (stereo not given) | -76 | 124 | -1.8 | i | 0.9 | -5 | 89
CCOC(=O)CSc1nnc(Cn2c(=O)sc3ccccc32)n1-c1ccccc1C | . | . | -0.2 | i | 1.1 | -11 | 97
CCC1SC(CC)C(=O)N(CC(=O)Nc2ccc3c(c2)OCO3)C1=O (stereo not given) | . | . | -0.2 | i | 1.2 | -3 | 100
Cc1nnsc1C(=O)NNC(=O)c1cccc2ccccc12 | . | . | . | i | 1 | . | 105
CSc1nc(N)nc(C2CC2)n1 | . | . | . | i | 0.89 | . | 97
O=C1CSC(c2ccc(Cl)cc2)N1C1CCCCC1 (stereo not given) | 34 | 83 | -0.6 | i | 0.87 | 10 | 103
CCCC(=O)Nc1ccccc1NC(=O)c1ccc(OCC)c(OCC)c1 | . | . | . | i | 0.84 | 3 | 101
